TRPML1 blocker: human mucolipin-1 channel inhibition | AID 624415 | actives 0.02% (n = 390,000) | activity change, negative = inhibition, % (test concentration not listed) | TRPML1-inducible cells, Ca2+ dye fluorescence, FDSS; hits give low values; inhibition of EC80 agonist-evoked calcium signal; in the data active means activity change below about -50%; inconclusive means about -30% to -50%; inactive means above about -30%;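 also: stimulus is agonist 54-4 at its EC80 concentration; % is scaled to controls: 0 for no effect and ±100 for the full control effect; compound concentration not given in the record; the text of the record puts the active cut at -80%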
Target sequence (Q9GZU1 whole entry, looked up): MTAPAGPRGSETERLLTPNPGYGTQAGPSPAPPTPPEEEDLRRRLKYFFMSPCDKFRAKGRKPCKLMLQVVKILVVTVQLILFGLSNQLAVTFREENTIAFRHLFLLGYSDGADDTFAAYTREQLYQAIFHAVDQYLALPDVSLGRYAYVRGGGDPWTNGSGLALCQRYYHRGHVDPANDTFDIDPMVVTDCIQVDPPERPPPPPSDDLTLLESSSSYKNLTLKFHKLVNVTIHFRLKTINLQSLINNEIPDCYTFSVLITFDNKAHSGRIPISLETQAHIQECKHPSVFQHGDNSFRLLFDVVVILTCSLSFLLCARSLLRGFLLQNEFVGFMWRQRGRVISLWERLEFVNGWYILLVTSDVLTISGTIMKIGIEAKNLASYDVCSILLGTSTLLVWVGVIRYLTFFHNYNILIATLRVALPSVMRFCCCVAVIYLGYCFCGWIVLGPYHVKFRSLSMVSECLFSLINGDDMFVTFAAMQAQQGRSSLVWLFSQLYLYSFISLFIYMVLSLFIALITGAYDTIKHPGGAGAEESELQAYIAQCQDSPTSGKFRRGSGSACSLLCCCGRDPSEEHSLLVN
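Calcium fluorescence in TRPML1-DL cells induced overnight with Tet: a 110 s read after compound pin addition, then a 110 s antagonist read after challenge with 54-4 at 4 uM final (EC80).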
PINK1 modulator: changes PINK1 expression; PINK1 immunofluorescence, high-content cytometry, 24 h; Potency, µM (titrated, usually from 76.6 µM), without a hit: top-dose activation (PINK1 increase), hits mostly activators; actives 0.2% (n = 410,000); AID 624263; active = well fitted activation curve with a large enough effect; inconclusive = small, poorly fitted or top-dose-only effect; inactive = flat fitted curve, though single readings scatter; cell line not stated here;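 also: potency is read from the fitted curve at half-maximal effect; % of control where 0% means no effect; nearly all actives have a fitted effect of over 65% in size; a mitochondrial uncoupler was the plate control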
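Stable cell line treated 24 h with compounds at 5 concentrations (CCCP controls), then fixed and immunostained for PINK1 plus nuclear and cell stains; PINK1 immunofluorescence quantified by laser-scanning microplate cytometry.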
CtBP-E1A inh: CtBP/E1A binding inhibition. AID 651724. activity change, % (test concentration not listed). actives 0.49% (n = 340,000). AlphaScreen GST-E1A/His-CtBP binding, 1536-well; hits give low values; control for the full effect not named in the record; in the data active means activity change below about -65%; inconclusive means about -30% to -65%; inactive means above about -30%; also: % is scaled to controls: 0 for no effect and ±100 for the full control effect; compound concentration not given in the record
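Steps: dispense buffer (Tris pH 8.0, NaCl 300 mM, TCEP 1 mM, BSA, Tween 20); add 5X protein mix (GST-E1A, His-CtBP, 125 nM each); pin 23 nL compound; 2 h at 37 °C, dark; add 5X beads (50 ug/mL); 1 h; read.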
D2 ag: agonists of human D2 dopamine receptor (beta-arrestin) | DiscoveRx PathHunter D2 beta-arrestin, luminescence, 90 min; 100% = 57 uM dopamine signal | activation, % (test concentration not listed) | actives 0.084% (n = 360,000) | AID 624465; in the data active = activation above about 40%; inconclusive = about 15% to 40%; inactive = below about 15%; also: compound concentration not given in the record; the text of the record calls up to 30% inactive
Target sequence (P14416 whole entry, looked up): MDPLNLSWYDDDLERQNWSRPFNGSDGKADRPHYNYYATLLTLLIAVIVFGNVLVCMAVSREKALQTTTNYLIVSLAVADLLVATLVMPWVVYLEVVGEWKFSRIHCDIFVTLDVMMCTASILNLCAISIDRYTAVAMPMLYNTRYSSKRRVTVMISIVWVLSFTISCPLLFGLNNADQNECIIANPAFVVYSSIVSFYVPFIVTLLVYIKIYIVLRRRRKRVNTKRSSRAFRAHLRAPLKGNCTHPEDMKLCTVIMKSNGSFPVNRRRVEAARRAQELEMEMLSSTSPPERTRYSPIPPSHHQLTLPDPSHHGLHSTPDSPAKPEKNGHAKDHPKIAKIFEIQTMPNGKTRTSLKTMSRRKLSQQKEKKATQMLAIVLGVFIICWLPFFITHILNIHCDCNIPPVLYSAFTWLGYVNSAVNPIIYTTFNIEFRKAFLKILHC
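DiscoveRx PathHunter D2 beta-arrestin cells (2,100/well) attached overnight, then compound-stimulated 90 min at 37 C in HBSS/10 mM HEPES/0.1% Tween-20 buffer; beta-galactosidase complementation read by luminescence after 1 h at ambient temperature. Dopamine 57 uM final (EC100) as control.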
Six1-Eya2 blk: inhibitors of human Six1/Eya2 interaction. AlphaScreen GST-Six1/His-Eya2 binding, biochemical; hits give low values; control for the full effect not named in the record. activity change, % (no concentration beside the values). AID 651725. Q15475+O00167. actives 0.56% (n = 360,000); in the data active = activity change below about -65%; inconclusive = about -30% to -65%; inactive = above about -30%; also: % is scaled to controls: 0 for no effect and ±100 for the full control effect; compound concentration not given in the record
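Six1/Eya2 binding was read as AlphaScreen signal after compounds were pinned into GST-Six1 plus His-tagged Eya2 (5X stock 250/500 nM) in pH 8.0 Tris/NaCl/TCEP buffer, beads added, then incubated 1 h, 37 C, dark.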
TRPML1 ag: human mucolipin-1 channel agonism. activation, % (no concentration beside the values). actives 0.12% (n = 410,000). TRPML1-expressing cells, Ca2+ dye fluorescence, FDSS; host cell line not named in the record; reference of the full effect not given here; in the data active = activation above about 50%; inconclusive = about 30% to 50%; inactive = below about 30%; also: 0% is about no effect; the text of the record puts the active cut at 80%
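Cells: TRPML1-DL, 1X Tet inducer, ~16 h at 37 degrees C/5% CO2. Dye: ABD Ca8 no-wash + quencher, 45-90 min RT. Read: 10 s baseline, compound add, 110 s agonist phase; 54-4 EC80 (4uM final), 110 s antagonist phase.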
* marks the source's active call; other numbers are inactive results; ? = inconclusive; · = no result given; & = joins results of further samples; [ ] = another dose, or the depositor's remark. Outcome played no part in choosing rows; about 1% have a hit in one of these screens.

Values run as follows: TRPML1 ag, PINK1 modulator, TRPML1 blocker, Six1-Eya2 blk, CtBP-E1A inh, D2 ag
Cc1cc(C)cc(N(C(=O)CNC(=O)c2ccco2)C(C(=O)NC2CCCCC2)c2ccncc2)c1 (stereo not given)
  -0.3, 2.1%, -5.1, 7.8, 3.1, -2.8
COc1ccccc1Nc1c2c(nc3ccc(NC(=O)c4ccc(OC)c(OC)c4)cc13)CCCC2
  0.8, 2.8%, 12.4, ·, ·, ·
CC1CCN(S(=O)(=O)c2cc(F)ccc2CN2C(=O)c3cccnc3C2=O)CC1
  0.0, 0.3%, 0.2, -1.5, ·, -1.7
COc1ccc(C(c2c(NC(=O)c3ccccc3)sc(C)c2C)N2CCN(CCO)CC2)cc1 (stereo not given)
  -0.3, -1.7%, -3.0, -2.6, -1.1, -3.4
O=C1C2CC=C(Cl)CC2C(=O)N1CCC[n+]1cccc2ccccc21 (stereo not given)
  0.2, -0.4%, 6.1, 26.3, 9.7, -5.5
O=S(=O)(c1ccc(Cl)cc1)n1c(Cc2ccccc2)nc2ccccc21
  -0.8, 2.1%, -5.9, 6.2, -9.8, -0.6
NC(=O)[C@@H]1CCCN1C(=O)c1cc(COc2ccc(F)cc2F)on1
  -0.5, -0.3%, 25.4, 14.2, 6.1, 1.8
COc1ccc(-c2nnc(SCC(=O)N3CCC(Cc4ccccc4)CC3)o2)cc1OC
  -0.4, -0.5%[38.3 µM], 5.3, 3.8, 2.0, -1.0
CC1CC(C)CN(C(=O)COC(=O)/C=C/c2cccc([N+](=O)[O-])c2)C1 (stereo not given)
  4.3, 1.6%, -1.8, -5.8, -25.7, -1.8
Cc1ccc(Nc2cc(C)nc(NCc3ccccc3)n2)cc1
  -0.9, -1.4%, 22.1, -13.4, -6.6, -8.2
NS(=O)(=O)c1ccc(NC(=S)NC(=O)c2cccs2)cc1
  -0.6, 2.7%, -4.7, 0.8, 4.1, -6.5
COc1ccc(COC(=O)c2[nH]c3c(c2C)C(=O)CC(c2ccc(OC)c(OC)c2)C3)cc1 (stereo not given)
  -0.2, 9.4%, -11.3, ·, ·, ·
CS(=O)(=O)Nc1ccc(C(=O)Nc2ccc(S(=O)(=O)N3CCCCC3)cc2)cc1
  0.0, -0.8%, -13.9, -12.3, 2.8, 0.1
CCCC1=C(C(=O)OCC)C(c2ccc(NC(C)=O)cc2)NC(=O)N1 (stereo not given)
  -0.5, 0.4%[38.3 µM], 27.4, 0.2, 12.4, -2.2
O=C(NCc1cccnc1)c1cc(C2CCCN(S(=O)(=O)c3cccc4cccnc34)C2)on1 (stereo not given)
  -0.9, 1.4%, ·, 3.1, 4.5, 4.0
Oc1cccc(/C=N/NC(=S)Nc2cccnc2)c1O
  -0.7, 3.3%, -0.4, -90.6*, -94.7*, -4.8
Cc1nc(NC(=O)/C=C/c2ccccc2)sc1C(=O)N1CCCCC1
  1.4, 0.4%, -28.2, -0.5, -4.0, -0.9
Cc1ccc(C2=CSC3=NCCN23)cc1
  0.3, -0.9%, 1.9, 2.2, -0.8, -2.8
COc1cccc(CNC(=O)Cn2cccc2C(=O)c2ccccc2)c1
  0.8, 0.5%, -6.4, ·, ·, ·
Cc1cc2n(n1)CCC(=O)N2Cc1ccc(C(=O)Nc2cc(Cl)ccc2C)cc1
  2.8, 4.6%, -2.2, ·, ·, ·
O=C1C[C@@H](c2ccccc2)Oc2cc(O)cc(O)c21
  -0.8, 1.8%, 3.8, -0.9, 5.8, -1.8
O=C(COc1ccccc1-c1ccccc1)NCc1ccco1
  0.4, -2.9%, 0.2, -11.4, -3.9, -1.3
CCOc1ccc(Cl)cc1S(=O)(=O)n1cnc2ccccc21
  -0.1, 5.2%, -1.1, 3.9, 6.5, 1.5
COc1ccc(-c2cc(CCCC(=O)NCCc3cc(OC)ccc3OC)no2)cc1
  0.3, -1.0%, -7.9, -9.6, -21.3, 3.3
Cn1c(CCCNC(=O)c2ccccc2)nc2ccccc21
  -0.7, 2.1%, -0.3, -1.9, 3.1, -2.2
O=Cc1cc2ccccc2nc1SCCCF
  -0.2, 4.1%, -0.7, -5.2, 9.4, 1.0
CCCNC(=O)C1CCC(Cn2c(=O)c3sccc3n(CC(=O)NCc3cccc(OC)c3OC)c2=O)CC1 (stereo not given)
  0.1, 0.7%, 8.6, ·, ·, ·
N#Cc1ccccc1NC(=O)c1cc2c(=O)n3ccccc3nc2s1
  0.1, 7.7%, 1.0, ·, ·, ·
COC(=O)/C=c1\sc2ncnn2c1=O
  -0.6, -0.9%, -8.2, 14.0, 19.9, -1.4
Cc1ccc(Nc2nc(N)nc(CN3CCc4ccccc4C3)n2)cc1
  1.5, 2.1%, 27.2, -12.5, -13.9, -2.2
Cc1ccc([N+](=O)[O-])cc1S(=O)(=O)Nc1ccc(OCC(=O)N2CCOCC2)cc1
  -0.1, 1.0%, 13.4, -1.5, 4.0, -2.8
CC(C)CSc1n[nH]c(N)n1
  -0.1, 2.2%, 3.1, 7.6, -5.3, -3.1
CC(C)(CC(=O)O)CC(=O)N1CCN(c2cc(C(F)(F)F)nc3ccccc23)CC1
  -0.1, 0.4%, 14.0, 6.5, ·, 0.7
Cc1cc(NCc2ccccn2)n2nc(C)c(-c3ccc(Cl)cc3)c2n1
  1.7, 5.3%, 5.8, 1.0, 0.6, -2.0
CN(C)/C=N/c1nc2nccc(-c3cccc(Cl)c3)n2n1
  -0.5, 0.3%, 5.6, -17.7, -1.1, -1.3
Cc1ccc(C)n1CCN1CCN(C(=O)c2ccco2)CC1
  -1.1, 1.2%, -7.5, -2.1, -0.2, 5.9
NC(=S)Nc1cccc2cccnc12
  0.5, 0.1%, 11.2, 3.6, 0.0, -0.9
Cc1cc(OCC(=O)NCCc2c[nH]c3ccccc23)c2c(C)c(C)c(=O)oc2c1
  ·, 1.2%, ·, 3.7, -3.7, -5.9
NC(=S)NN=Cc1c[nH]c2nccnc12
  -0.7, 12.9%, 3.4, -66.2*, -23.6, -19.7
Cc1ccc(Cl)cc1N1CCN(C(=O)C2CCN(S(=O)(=O)c3ccc4c(c3)oc(=O)n4C)CC2)CC1
  -0.3, -0.6%, -10.5, ·, ·, ·
COC(=O)C(NNc1ccccc1)(NC(=O)c1ccccc1F)C(F)(F)F (stereo not given)
  1.6, -2.1%, 21.7, -1.4, -3.8, -3.3
NS(=O)(=O)c1ccccc1
  -0.5, 1.1%, -0.7, 10.4, 6.6, -0.5
COc1ccc(NC(=O)CN(C)CC(=O)Nc2ccccc2SC)cc1Cl
  1.3, -1.5%, -16.9, 0.8, -9.5, 2.7
CCC1(CC)C(=O)C2=C3C1[C@H](C(=O)OC)C=C(C(=O)OC)C[C@H]3n1c(=O)n(-c3ccccc3)c(=O)n1[C@H]2C (stereo not given in full)
  -0.9&1.8, 1.1%, -9.9&7.8, 1.7, 2.0, 2.3
CC1(C)CC(=O)C(CC(=O)NC(=O)NCc2ccccc2)=C(O)C1
  0.1, 0.5%, -10.6, 3.4, 3.3, 0.2
OCCN1CCSC1=S
  -0.6, -1.4%, -1.5, -9.4, -3.3, -8.1
CC(CN1CCCC1)OC(=O)c1ccc(F)cc1 (stereo not given)
  -0.4, 0.6%, 21.6, -5.6, -1.3, 0.8
COC(=O)CC1=C(C(=O)OC)C(c2ccc3c(c2Cl)OCO3)C(C#N)=C(N)O1 (stereo not given)
  -0.1, 8.3%[38.3 µM], -20.3, -1.9, 2.1, -2.7
Cc1ccc(/C=N/n2c(-c3ccccc3)n[nH]c2=S)cc1
  1.8, 4.0%, 20.1, -3.5, -12.2, 9.4
CC(=O)Nc1cccc(C(=O)OC(C)C(=O)NC2CCCc3ccccc32)c1 (stereo not given)
  -0.9, 0.8%, -14.6, -9.3, 9.1, -2.4

Following part:
Values run as follows: TRPML1 ag, PINK1 modulator, TRPML1 blocker, Six1-Eya2 blk, CtBP-E1A inh, D2 ag
CC(=O)N(C)c1ccc(NC(=O)c2ccc([N+](=O)[O-])cc2Cl)cc1
  0.3, 0.6%, 19.3, 3.1, 1.0, 5.6
Cc1cc(C)cc(NC(=O)C(=O)NCc2ccccn2)c1
  0.2, -1.1%, -20.1, 8.6, -1.9, -0.7
O=S(=O)(c1ccc(-c2cnc(C3CC3)o2)cc1)N1CCN(c2ccc(F)cc2)CC1
  0.0, 8.9%, 12.4, ·, ·, ·
CCN(CCNC(=O)C1CCN(Cc2nc(-c3ccc(Cl)cc3)oc2C)CC1)c1ccccc1
  0.3, -1.7%, 16.2, ?, ?, 8.8&-0.1
C=CCNC(=S)NNC(=O)COc1ccc(Br)cc1
  0.0, -0.2%, -17.3, 3.2, -3.4, -1.2
CCOC(=O)N1CCN(CC(=O)Nc2ccc(F)cc2F)CC1
  4.8, -0.4%, 9.8, 2.7, 10.7, 0.7
O=C(Nc1cccc(Cl)c1)Nc1ccc2c(c1)OCO2
  4.4, 1.2%, -14.7, -19.3, -9.0, -0.6
Cc1ccc(-n2ncc3c(NC4CCCCC4)ncnc32)cc1Cl
  -0.6, 3.1%, 13.0, ·, ·, ·
Cc1ccc(/C=N/NC(=O)Cn2nc(C)c(Br)c2C)o1
  -0.3, ·, -0.6, -4.4, 2.1, -1.4
CC1CCC(N2CC(=O)N(C3CCCCC3)C(c3ccc(Cl)cc3)C2=O)CC1 (stereo not given)
  0.3, 0.2%, -17.3, ·, ·, ·
NC(c1csc(NC(=O)Nc2ccccc2Oc2ccccc2)n1)c1ccccc1Cl (stereo not given)
  0.2, ?, 5.6, -5.2, -22.8, 3.8
C=CCNS(=O)(=O)NC(=O)C1=C(N2CCCC2)COC1=O
  -0.5, -0.6%, -23.8, 13.4, 17.2, -1.7
Cc1sc2nc(SCC(=O)N(C)c3ccccc3)n(C)c(=O)c2c1C
  0.3, -2.9%, -10.7, 7.9, 0.0, 4.1
CCN(C(=O)COC(=O)CCNS(=O)(=O)c1ccccc1F)c1c(N)n(Cc2ccccc2)c(=O)[nH]c1=O
  -0.2, -0.4%, -13.9, 4.8, 11.3, -4.4
CN(C)N1C(N)=C(C#N)C(c2ccccc2)C2=C1CC(C)(C)CC2=O (stereo not given)
  0.0, -1.3%, 3.8, 2.7, 5.4, 0.0
COc1ccc(CNc2cc([N+](=O)[O-])ccc2OC)cc1
  1.3, 1.8%[38.3 µM], 12.4, 13.5, 8.3, -2.9
CCCCN1CC(COCc2ccccc2)Oc2cccc(OCc3ccc(OC)cc3)c2S1(=O)=O (stereo not given)
  1.1, 1.8%, 0.8, 4.3, 0.0, -13.3
O=C(c1cccs1)N(Cc1ccc(F)cc1)C1CCS(=O)(=O)C1 (stereo not given)
  1.3, -1.1%, -5.7, 7.1, 4.8, -4.2
COc1ccc(NC(=O)C2(C)CCN2Cc2ccc(OC(F)(F)F)cc2)cc1OC (stereo not given)
  -1.3, 2.0%, ·, -10.3, -1.0, -4.3
COC(=O)c1cc(=O)nc2sc(-c3ccccc3)nn12
  1.4, 12.3%[38.3 µM], 11.3, -2.6, 8.6, -3.4
COc1ccccc1CNC(=O)CCC1N=C2c3ccccc3N=C(SCC(=O)Nc3ccc(N(C)C)cc3)N2C1=O (stereo not given)
  -0.8, 0.5%, 16.7, ·, ·, ·
